Source: PubChem
FGF22 binding: shifts melting point of recombinant human FGF22; Q9HCT0; recombinant FGF22 thermal shift, SYPRO orange fluorescence; percent of sucrose octasulfate shift, DMSO zero; calls only at 9.99 µM; 340,000 tested, 1.5% active;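 active means melting point raised past a set limit in the mean and every replicate; inconclusive means no clear call; three in four hits are not shown here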
Target sequence (Q9HCT0 whole entry, looked up): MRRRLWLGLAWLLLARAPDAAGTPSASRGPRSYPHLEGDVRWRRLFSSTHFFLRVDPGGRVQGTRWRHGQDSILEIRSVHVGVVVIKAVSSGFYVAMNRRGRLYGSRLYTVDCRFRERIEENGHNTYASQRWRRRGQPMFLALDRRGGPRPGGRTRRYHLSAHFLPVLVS
ALR inh: inhibitors of human sulfhydryl oxidase ALR. 290,000 tested, 3.8% active. inhibition, % (no concentration beside the values). purified ALR, DTT oxidation, H2O2 HRP-luminol luminescence;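 active means mean and each replicate at 75% or more; inconclusive means only one of the two met; inactive means neither met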;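 further: stock transfer was 7.5 nL into about 7.5 µL; 0% = neutral wells and 100% = wells with inactivated enzyme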
Target sequence (P55789 whole entry, looked up): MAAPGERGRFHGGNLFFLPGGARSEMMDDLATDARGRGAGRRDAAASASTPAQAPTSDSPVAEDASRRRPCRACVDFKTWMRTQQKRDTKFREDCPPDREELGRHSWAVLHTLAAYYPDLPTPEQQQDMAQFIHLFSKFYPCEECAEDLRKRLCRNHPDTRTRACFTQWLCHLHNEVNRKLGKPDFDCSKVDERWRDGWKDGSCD
rRNA inh HTS: selective bacterial rRNA inhibition in E. coli | E. coli WT GFP vs humanized-ribosome RFP mutants, fluorescence, 24 h; hits give low values; DMSO median 0, no signal -100 | GFP signal change (wild-type ribosome), % (test concentration not listed) | AID 720706 | 350,000 tested, 1.6% active;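 active means significant combined selectivity score with lowered wild-type GFP, culture density cut under 30%, mutant RFP and density less affected; inactive means any of these conditions unmet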; further: one replicate is shown; some compounds called inactive have numbers as strong as hits
Beta apoptosis: blocks beta cell apoptosis; INS-1E cytokine-induced death, ATP luminescence, 48 h; percent of positive-control rescue, neutral wells zero; protection from apoptosis, % (concentration not given with the values); 300,000 tested, 0.8% active; AID 435005;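 active means all replicates at 75% or more, or half of them and the mean; inconclusive means half reach 75% but not the mean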;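 further: 0% = cytokine-treated negative control wells and 100% = positive control rescue; higher means more ATP so stronger rescue from cytokine killing; wells of about 40 µL received 100 nL stock; the first replicate is given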
T cruzi repl: blocks replication of Trypanosoma cruzi; 300,000 tested, 1.4% active; AID 1885; inhibition, % (no concentration beside the values); T. cruzi beta-gal in NIH3T3, luminescence, 90 h;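 active means mean inhibition across valid replicates above about 55%, limit read from the data; inconclusive means mean below that limit but half or more replicates reach it; inactive means mean below it, under half of replicates reach it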;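 further: signal also drops with host cell toxicity which is not excluded here; 0% = plate median of DMSO wells and 100% = zero luminescence signal; higher percent means less beta-gal luminescence so fewer parasites; stock transfer was 50 nL into about 50 µL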
RanGTP-Imp inh: inhibitors of RanGTP-importin-beta interaction, primary screen, biochemical, FRET, CFP-Ran, YFP-importin-beta, homogeneous; cell-free CFP-Ran/YFP-importin-beta FRET ratio; inhibition, % (test concentration not listed); 300,000 tested, 1.1% active;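 active means most replicates above 15%; inconclusive means exactly half above 15%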;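 further: 0% = DMSO wells and 100% = Ran loaded with GDP instead of GTP; wells of about 40 µL received 100 nL stock; the first replicate is given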
AF4-AF9 inh: MLL-AF4/AF9 protein interaction inhibition; AlphaScreen, biotin-AF4 peptide binding to FLAG-AF9; AID 651704; inhibition, % at 10 µM; 350,000 tested, 0.47% active;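 active means every replicate reaching a set inhibition limit, whatever the replicate mean, cut at about 25% in these data; inconclusive means mean inhibition reaches that limit but some replicates miss it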;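 further: 0% = plate neutral control median and 100% = total signal loss; the record names both 10 and 1 µM as test concentration; the first replicate is given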
Target sequence (P42568 whole entry, looked up): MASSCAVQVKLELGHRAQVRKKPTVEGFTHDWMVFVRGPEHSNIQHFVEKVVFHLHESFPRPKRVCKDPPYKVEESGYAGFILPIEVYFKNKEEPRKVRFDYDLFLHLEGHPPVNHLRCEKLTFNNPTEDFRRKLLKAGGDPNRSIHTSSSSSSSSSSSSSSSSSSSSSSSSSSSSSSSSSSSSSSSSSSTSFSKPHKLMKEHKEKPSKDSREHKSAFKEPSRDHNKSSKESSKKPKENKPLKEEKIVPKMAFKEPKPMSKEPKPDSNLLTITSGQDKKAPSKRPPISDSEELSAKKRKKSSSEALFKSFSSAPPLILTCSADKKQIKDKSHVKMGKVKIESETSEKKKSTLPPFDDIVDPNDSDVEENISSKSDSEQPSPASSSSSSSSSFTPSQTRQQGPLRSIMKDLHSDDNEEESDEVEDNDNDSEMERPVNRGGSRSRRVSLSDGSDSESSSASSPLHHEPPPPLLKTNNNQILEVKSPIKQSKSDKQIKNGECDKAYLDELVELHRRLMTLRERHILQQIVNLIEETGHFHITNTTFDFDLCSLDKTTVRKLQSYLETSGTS
Calb FLC: affects C. albicans growth with fluconazole; C. albicans CaCi-2 (fluconazole-resistant clinical isolate) + fluconazole, Alamar Blue growth, 48 h; growth inhibition, % (concentration not given with the values); 300,000 tested, 0.57% active;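 active means most replicates above 75%; inconclusive means exactly half above 75%; inactive means most below 75%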;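 further: all wells also contain fluconazole at 8 µg/ml as a sub-toxic cotreatment; 0% = median of DMSO wells and 100% = median of geldanamycin control wells; wells of about 8 µL received 7.5 nL stock; the first replicate is given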
rRNA inh HTS OD600: second read-out of rRNA inh HTS, no call of its own (marks repeat the call); OD600 change, %; measured here: OD600 growth;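 optical density of the mix in the first replicate; 0 = DMSO median and -100 = no signal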
rRNA inh HTS RFP: recorded beside rRNA inh HTS, whose call it bears; RFP signal change, %; measured here: RFP humanized mutant strains;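 first replicate; 0 = DMSO median and -100 = no signal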
Numbers without * were called inactive.

The opening five records as a preview:
For CCOC(=O)c1cc2occc2n1CC(=O)NC1CCC(C)CC1 (stereo not given) the results were ALR inh 6, Beta apoptosis -3, T cruzi repl -7, RanGTP-Imp inh inconclusive and Calb FLC -7.
CCN(CC(=O)NCc1cccs1)C(=O)c1ccc(OC)c(OC)c1 was read as ALR inh -1, rRNA inh HTS 10, Beta apoptosis -3, T cruzi repl -3, RanGTP-Imp inh 2.6, AF4-AF9 inh 9.8, Calb FLC 8, rRNA inh HTS OD600 12 and rRNA inh HTS RFP 0.9.
OCC[C@@H]1C[C@@H](O)[C@H](O)[C@]2(CCc3ccccc3CO2)O1 was read as FGF22 binding inactive, ALR inh 2, rRNA inh HTS 4, Beta apoptosis -8, T cruzi repl inconclusive, RanGTP-Imp inh inconclusive, AF4-AF9 inh -4.2, Calb FLC 9, rRNA inh HTS OD600 11 and rRNA inh HTS RFP 6.1.
For Cn1c(SCc2ccccc2)nc(N)c(N=O)c1=O the results were FGF22 binding inactive, ALR inh 75, rRNA inh HTS -20*, RanGTP-Imp inh 5.5, AF4-AF9 inh -0.9, Calb FLC 70, rRNA inh HTS OD600 -4.2* and rRNA inh HTS RFP 3.4*.
`COC(=O)C1=C(C(=O)OC)[C@@H]2Nc3ccccc3[C@@]23C[C@@H](C(=O)OC)N(C(=O)C2CCC2)C3=N1` gave FGF22 binding inactive, ALR inh -4, rRNA inh HTS 1, Beta apoptosis -1, T cruzi repl 10, RanGTP-Imp inh 0.4, AF4-AF9 inh 9.6, Calb FLC -10, rRNA inh HTS OD600 8 and rRNA inh HTS RFP -2.4.

Main list, from the start:
For CCOC(=O)c1cc2occc2n1CC(=O)NC1CCC(C)CC1 (stereo not given) the results were ALR inh 6, Beta apoptosis -3, T cruzi repl -7, RanGTP-Imp inh inconclusive and Calb FLC -7.
CCN(CC(=O)NCc1cccs1)C(=O)c1ccc(OC)c(OC)c1 was read as ALR inh -1, rRNA inh HTS 10, Beta apoptosis -3, T cruzi repl -3, RanGTP-Imp inh 2.6, AF4-AF9 inh 9.8, Calb FLC 8, rRNA inh HTS OD600 12 and rRNA inh HTS RFP 0.9.
OCC[C@@H]1C[C@@H](O)[C@H](O)[C@]2(CCc3ccccc3CO2)O1 was read as FGF22 binding inactive, ALR inh 2, rRNA inh HTS 4, Beta apoptosis -8, T cruzi repl inconclusive, RanGTP-Imp inh inconclusive, AF4-AF9 inh -4.2, Calb FLC 9, rRNA inh HTS OD600 11 and rRNA inh HTS RFP 6.1.
For Cn1c(SCc2ccccc2)nc(N)c(N=O)c1=O the results were FGF22 binding inactive, ALR inh 75, rRNA inh HTS -20*, RanGTP-Imp inh 5.5, AF4-AF9 inh -0.9, Calb FLC 70, rRNA inh HTS OD600 -4.2* and rRNA inh HTS RFP 3.4*.
`COC(=O)C1=C(C(=O)OC)[C@@H]2Nc3ccccc3[C@@]23C[C@@H](C(=O)OC)N(C(=O)C2CCC2)C3=N1` gave FGF22 binding inactive, ALR inh -4, rRNA inh HTS 1, Beta apoptosis -1, T cruzi repl 10, RanGTP-Imp inh 0.4, AF4-AF9 inh 9.6, Calb FLC -10, rRNA inh HTS OD600 8 and rRNA inh HTS RFP -2.4.
For CCn1c(SCC(=O)NNC(=O)c2ccc(C)cc2)nnc1-c1ccco1 the results were FGF22 binding inactive, ALR inh -5, rRNA inh HTS 11, Beta apoptosis -5, T cruzi repl 4, RanGTP-Imp inh 0.2, AF4-AF9 inh -3.4, Calb FLC 5, rRNA inh HTS OD600 4 and rRNA inh HTS RFP 0.8.
Screening S=C(NCCc1ccncc1)Nc1cccc2ccccc12 returned FGF22 binding inactive, ALR inh -17, rRNA inh HTS -4, Beta apoptosis -3, T cruzi repl 2, RanGTP-Imp inh -0.7, AF4-AF9 inh -1.1, Calb FLC -2, rRNA inh HTS OD600 -17 and rRNA inh HTS RFP 2.6.
`CC(=O)Nc1ccc(-n2nnnc2SCC(=O)N2CCN(C(=O)c3ccco3)CC2)cc1` gave ALR inh -4, T cruzi repl -10, RanGTP-Imp inh 1.9 and Calb FLC -18.
For O=C(Nc1ccccc1-c1nc2ccccc2[nH]1)c1ccc(N2C(=O)CCC2=O)cc1 the results were FGF22 binding inactive, ALR inh 4, rRNA inh HTS 8, Beta apoptosis 11, T cruzi repl 19, RanGTP-Imp inh 2.5, AF4-AF9 inh -1.7, Calb FLC -20, rRNA inh HTS OD600 20 and rRNA inh HTS RFP -2.1.
CC1CCN(S(=O)(=O)c2ccc(NC(=O)CN3CCOCC3)cc2)CC1 was read as ALR inh -3, Beta apoptosis 0, T cruzi repl 12, RanGTP-Imp inh 0.5 and Calb FLC -3.
O=C(CN1CCCCCC1)N/N=C/c1cccc(Cl)c1 was read as ALR inh -1, Beta apoptosis -3, T cruzi repl -5, RanGTP-Imp inh inconclusive and Calb FLC 6.
For COC(=O)c1ccc(N2CCN(C(C)=O)CC2)c(NC(=O)c2cccnc2)c1 the results were FGF22 binding inactive, ALR inh -8, rRNA inh HTS 0, Beta apoptosis -1, T cruzi repl -7, RanGTP-Imp inh 3.4, AF4-AF9 inh 1.9, Calb FLC 18, rRNA inh HTS OD600 4 and rRNA inh HTS RFP -1.6.
Screening Cc1nnc2ccc(N3CCN(C(=O)c4ccccc4)CC3)nn12 returned FGF22 binding inactive, ALR inh -4, rRNA inh HTS 2, Beta apoptosis -13, T cruzi repl 1, RanGTP-Imp inh -2.0, AF4-AF9 inh -4.0, Calb FLC 2, rRNA inh HTS OD600 0 and rRNA inh HTS RFP 0.1.
Screening CCOC(=O)c1c(NC(N)=O)sc(C)c1C returned ALR inh 18, Beta apoptosis -7, T cruzi repl 4, RanGTP-Imp inh -1.1 and Calb FLC 1.
For Cc1ccc(S(=O)(=O)N2CCN(C(=O)Cn3c(=O)cnc4ccccc43)CC2)c(C)c1 the results were FGF22 binding inactive, ALR inh -24, rRNA inh HTS 1, Beta apoptosis 3, AF4-AF9 inh 12, rRNA inh HTS OD600 -2 and rRNA inh HTS RFP -1.5.
c1ccc(-n2ncc3cccnc32)cc1 was read as FGF22 binding inactive, ALR inh -2, rRNA inh HTS 15, Beta apoptosis -5, T cruzi repl 17, RanGTP-Imp inh 1.5, AF4-AF9 inh 0.7, Calb FLC -1, rRNA inh HTS OD600 4 and rRNA inh HTS RFP -1.7.
Screening COc1cc(CC(=O)NC2CCCc3ccccc32)cc(OC)c1OC (stereo not given) returned FGF22 binding inactive, Beta apoptosis -1, T cruzi repl 17, RanGTP-Imp inh 1.3, AF4-AF9 inh -16 and Calb FLC -12.
`Cc1noc(C)c1CSc1nc2ccccc2s1` gave Beta apoptosis 2, T cruzi repl -3, RanGTP-Imp inh 3.2 and Calb FLC 14.
Screening O=C(NC1CCCCC1)Nn1c(-c2ccccc2)nc2ccccc2c1=O returned Beta apoptosis 0, T cruzi repl 5, RanGTP-Imp inh -0.1 and Calb FLC -30.
Screening CCn1c(SCC(=O)NCCc2ccccc2)nnc1-c1ccco1 returned ALR inh 3, Beta apoptosis 1, T cruzi repl -5, RanGTP-Imp inh 1.6 and Calb FLC -4.
For CN1CCN(C(=O)/C=C/c2ccc(Cl)c(Cl)c2)CC1 the results were FGF22 binding inactive, ALR inh -6, rRNA inh HTS -3, Beta apoptosis -6, T cruzi repl 19, RanGTP-Imp inh 1.7, AF4-AF9 inh -5.3, Calb FLC 9, rRNA inh HTS OD600 -3 and rRNA inh HTS RFP 1.0.
Screening CCc1ccccc1N(CC)C(=O)CCc1nc(-c2ccc(C)cc2)no1 returned ALR inh -1, Beta apoptosis 3, T cruzi repl 16, RanGTP-Imp inh 0.4 and Calb FLC 10.
c1cnc(NCCNc2ncccn2)nc1 was read as ALR inh -15, Beta apoptosis -10, T cruzi repl 10, RanGTP-Imp inh 0.5 and Calb FLC 19.
`CCOC(=O)Cc1csc(NC(=O)c2ccc(S(=O)(=O)N3CCOCC3)cc2)n1` gave FGF22 binding inactive, ALR inh 17, rRNA inh HTS -10, Beta apoptosis 0, T cruzi repl 1, RanGTP-Imp inh 0.5, AF4-AF9 inh -7.2, Calb FLC inconclusive, rRNA inh HTS OD600 -15 and rRNA inh HTS RFP -5.4.
`COc1ccc2c(c1)c(C(O)CN1CCN(Cc3ccc4c(c3)OCO4)CC1)c(C)n2C` (stereo not given) gave ALR inh -2, rRNA inh HTS 5, Beta apoptosis 0, T cruzi repl 30, RanGTP-Imp inh -4.3, Calb FLC -1, rRNA inh HTS OD600 -1 and rRNA inh HTS RFP 1.8.
COC(=O)c1cccc(NC(=O)c2cc3sccc3n2C)c1 was read as ALR inh 19, Beta apoptosis 4, T cruzi repl 29, RanGTP-Imp inh 6.4 and Calb FLC -3.
`O=C(Nc1nnc(SCC(=O)N2CCCc3ccccc32)s1)c1cccc2ccccc12` gave FGF22 binding inactive, ALR inh -19, rRNA inh HTS 7, Beta apoptosis 1, T cruzi repl -4, RanGTP-Imp inh 0.0, AF4-AF9 inh -6.2, Calb FLC 16, rRNA inh HTS OD600 2 and rRNA inh HTS RFP -5.1.
`CN1CCN(S(=O)(=O)c2ccc(N3CCN(S(=O)(=O)/C=C/c4ccccc4)CC3)nc2)CC1` gave ALR inh -4, Beta apoptosis 0, T cruzi repl 2, RanGTP-Imp inh 3.3 and Calb FLC 18.
Screening CCc1ccccc1Nc1nc(N)nc(CSCC(=O)c2cc(C)n(C)c2C)n1 returned ALR inh 98*, Beta apoptosis -4, T cruzi repl -10 and RanGTP-Imp inh 4.7.
For CCCCOc1ccc(C(=O)C(CN2CCOCC2)c2ccccc2)cc1 (stereo not given) the results were ALR inh 6, Beta apoptosis 67, T cruzi repl 20, RanGTP-Imp inh -1.2 and Calb FLC -3.
For COc1ccccc1C(=O)Nc1c[nH]c(=O)[nH]c1=O the results were FGF22 binding inactive, ALR inh -1, rRNA inh HTS 24, T cruzi repl -14, RanGTP-Imp inh inconclusive, AF4-AF9 inh -22, Calb FLC -5, rRNA inh HTS OD600 19 and rRNA inh HTS RFP 4.2.
Screening CC(C)(C)C1CCC2(CC1)NC(CO)(CO)CO2 (stereo not given) returned ALR inh -3, Beta apoptosis -4, T cruzi repl -10, RanGTP-Imp inh 1.1 and Calb FLC -3.
`Cn1c(COc2ccc3ccccc3c2)nnc1SCC(=O)OC1CCCCC1` gave ALR inh -5, Beta apoptosis -1, T cruzi repl -11 and RanGTP-Imp inh 4.4.
`O=C(CCNC(=O)c1ccccc1)NCc1ccccc1F` gave FGF22 binding inactive, ALR inh -2, rRNA inh HTS 2, Beta apoptosis -2, AF4-AF9 inh 2.1, rRNA inh HTS OD600 10 and rRNA inh HTS RFP 0.0.
`CC(OC(=O)CN1C(=O)C2CC=CCC2C1=O)C(=O)Nc1ccc(F)cc1Cl` (stereo not given) gave FGF22 binding inactive, ALR inh 0, rRNA inh HTS 1, Beta apoptosis 2, T cruzi repl -9, RanGTP-Imp inh 3.0, AF4-AF9 inh -0.5, Calb FLC 9, rRNA inh HTS OD600 4 and rRNA inh HTS RFP -0.3.
For O=c1onc(-c2c(F)cccc2F)n1-c1ccccc1Cl the results were FGF22 binding inactive, rRNA inh HTS 5, T cruzi repl 0, RanGTP-Imp inh -0.6, AF4-AF9 inh -4.0, Calb FLC -8, rRNA inh HTS OD600 2 and rRNA inh HTS RFP -0.9.

The list is partial; rates above refer to the full screens.
